Bioassay records from PubChem.
Rango complex inh: Rango-importin beta binding inhibition; Rango CFP/YFP FRET sensor + importin beta, 45 min; 340,000 tested, 0.031% active; AID 540263; Potency, µM (highest dose often 92.2 µM), inactives show top-dose inhibition of complex formation; Q14974; active = rising FRET ratio curve, often small or poorly fitted; inconclusive = mostly compound fluorescence or quenching in the first reads; inactive = flat curves in all reads;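 further: potency means the concentration at half of the fitted maximal effect; 0% = DMSO wells and 100% = buffer wells lacking importin beta; nearly all actives have a fitted effect of over 15% in size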
Target sequence (Q14974 whole entry, looked up): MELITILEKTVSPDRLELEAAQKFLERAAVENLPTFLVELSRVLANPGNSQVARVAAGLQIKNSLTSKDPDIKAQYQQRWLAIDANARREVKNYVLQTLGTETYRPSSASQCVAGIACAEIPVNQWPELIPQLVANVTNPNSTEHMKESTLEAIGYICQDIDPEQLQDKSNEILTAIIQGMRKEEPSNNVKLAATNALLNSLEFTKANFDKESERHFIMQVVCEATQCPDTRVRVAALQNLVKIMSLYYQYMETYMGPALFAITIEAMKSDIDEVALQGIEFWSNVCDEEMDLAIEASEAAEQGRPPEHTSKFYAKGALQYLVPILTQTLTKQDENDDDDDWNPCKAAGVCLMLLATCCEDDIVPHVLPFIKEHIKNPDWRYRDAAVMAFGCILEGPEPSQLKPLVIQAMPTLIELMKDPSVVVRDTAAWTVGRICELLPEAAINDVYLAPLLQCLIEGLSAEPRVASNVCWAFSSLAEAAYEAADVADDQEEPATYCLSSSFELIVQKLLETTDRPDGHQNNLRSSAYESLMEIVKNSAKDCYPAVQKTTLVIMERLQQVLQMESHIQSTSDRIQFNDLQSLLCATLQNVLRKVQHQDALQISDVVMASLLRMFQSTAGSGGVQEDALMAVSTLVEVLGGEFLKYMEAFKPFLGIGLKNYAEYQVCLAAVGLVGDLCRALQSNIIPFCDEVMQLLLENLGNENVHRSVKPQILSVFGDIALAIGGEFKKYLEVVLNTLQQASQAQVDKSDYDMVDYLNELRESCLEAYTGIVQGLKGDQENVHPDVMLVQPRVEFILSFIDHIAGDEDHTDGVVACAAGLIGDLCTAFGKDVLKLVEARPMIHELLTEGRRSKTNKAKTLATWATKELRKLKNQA
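FRET biosensor Rango (snurportin 1 IBB between N-terminal EYFP and C-terminal Cerulean), 50 nM in PBS/1 mM DTT/0.02% Tween-20/0.1% BSA, preincubated 5 min RT with compound; 0.125 microM importin beta added, 45 min RT, CFP/YFP FRET ratio read.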
GLA inh pH 4.5: alpha-galactosidase A (human) inhibition, pH 4.5. 230,000 tested, under 10 active. activity change, negative = inhibition, % at 105 µM. AID 1467. purified enzyme, 4-MU-alpha-Gal fluorescence, pH 4.5; inconclusive = small, poorly fitted or top-dose-only inhibition, or a rising curve; inactive = flat fitted curve, though single readings scatter; no compound was filed as active;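 further: 0% = full activity with enzyme and -100% = basal without enzyme; dose as in the result columns while the protocol names 77 µM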
Rango release inh: inhibitors of RanGTP-induced Rango-importin beta complex dissociation | O95149+P62826 | Biochemical FRET Rango-importin beta, RanGTP-induced dissociation | Potency, µM (titrated, usually from 46.1 µM), without a hit: at the top dose activity change, negative = inhibition | 340,000 tested, 0.071% active; active means falling FRET ratio curve, often poorly fitted, with flat reads before Ran was added; inconclusive means other falling curves, or compound fluorescence or quenching; inactive means flat or rising ratio curve;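 further: potency means the concentration at half of the fitted maximal effect; % of control where 0% means no effect; nearly all actives have a fitted effect of over 45% in size; -100% = wells without RanGTP and RCC1; the record marks most hits as doubtful in a second field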
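Rango FRET biosensor (snurportin-1 IBB flanked by N-terminal EYFP and C-terminal CFP10) at 0.1 uM, with 0.25 uM importin beta in PBS, 1mM DTT, 0.02% Tween-20, 0.1% BSA. 0.6 uM Ran, 2mM GTP and 0.2 uM RCC1 were then added for 45 min at room temperature. Inhibition read as loss of FRET rise.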
miR-21 FLuc: miR-21 reporter, rising signal; HeLa miR-21 FLuc reporter, luciferase, 48 h; Potency, µM (doses to about 38.3 µM), for inactives: at the highest dose reporter change, positive = more light; 340,000 tested, under 10 active; AID 2288; active = well fitted rising curve with a large enough effect; inconclusive = small, poorly fitted or top-dose-only effect; inactive = no such curve, though single readings can be large or run the other way;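 further: % of control where 0% means no effect; miR-21 action dims this reporter so a rising signal means less miR-21 action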
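Compounds were titrated across several concentrations (up to approximately 40 uM) and incubated 48 hours with HeLa miR-21-FLuc reporter cells (miR-21 target sequence downstream of FLuc, endogenous miR-21). Readout was firefly luciferase luminescence after lytic detection reagent.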
An asterisk follows results filed as active; u = inconclusive; x = no result given; & = joins results of further samples. Some of the compounds tested; count on the stated rates, not on these rows.

entry	Structure	Rango complex inh	GLA inh pH 4.5	Rango release inh	miR-21 FLuc
1	CCOC(=O)Cc1csc(NC(=O)c2ccc(C)cc2)n1	-2.4%	-2	2%	-8%
2	COc1ccc(C(=O)NC(C(=O)NCc2ccccc2OC)C(C)C)cc1 (centres undefined)	2.6%	0	6%	-6%
3	O=C(CCc1ccccc1)NNC(=O)Nc1ccc(Cl)cc1	-0.5%	x	2%	1%
4	CCOC(=O)CC(=O)Nc1ccc(C(=O)OCC)cc1	u	2	2%	-15%
5	CCN1C(=O)C(O)(CC(=O)c2c(C)coc2C)c2ccccc21 (centres undefined)	-0.3%	-1	1%	0%
6	CC(OC(=O)C1CC2CCCC(C1)C2=O)C(=O)Nc1cccc([N+](=O)[O-])c1 (centres undefined)	-0.3%	x	4%	x
7	COc1cccc(CN2CC(C(=O)N3CCCO3)CCC2=O)c1 (centres undefined)	-0.2%	x	1%	-4%
8	CCC(=O)NC(=S)Nc1ccc(NC(=O)c2ccco2)cc1	-0.9%	5	13%	-30%

Limited to Rango complex inh and GLA inh pH 4.5 (3 entries from above):
item | Compound | Rango complex inh | GLA inh pH 4.5
1 | CCOC(=O)Cc1csc(NC(=O)c2ccc(C)cc2)n1 | -2.4% | -2
2 | COc1ccc(C(=O)NC(C(=O)NCc2ccccc2OC)C(C)C)cc1 (centres undefined) | 2.6% | 0
3 | O=C(CCc1ccccc1)NNC(=O)Nc1ccc(Cl)cc1 | -0.5% | x

Continuation:
entry	Structure	Rango complex inh	GLA inh pH 4.5	Rango release inh	miR-21 FLuc
9	O=C(NCCN1CCCCC1)Nc1cccc(Cl)c1Cl	4.1%	x	-16%	-3%
10	Clc1ccccc1C1=Nn2c(nnc2-c2ccco2)SC1	1.2%	-3	-7%	-17%
11	CC1CCN(C(=O)c2ccc(NC(=O)C3CCCO3)cc2)CC1 (centres undefined)	-0.3%	-11	-8%	-5%
12	N#Cc1ccc(C(=O)NNC(=O)c2ccncc2)cc1	0.4%	x	-4%	0%
13	CC(=NCc1cccc(Cl)c1)c1nc(-c2ccco2)oc1O	-3.0%	-14	-18%	-11%
14	Cc1nc2ccc(NC(=O)N3CCSCC3)cc2s1	1.9%	4	-6%	-30%
15	COc1cc(-c2n[nH]c(=S)n2-c2cccc(C(F)(F)F)c2)cc(OC)c1OC	1.0%	-1	-4%	-13%
16	CS(=O)(=O)N(CC(=O)N1CCc2ccccc2C1)Cc1ccc(Cl)cc1	-0.1%	-4	-3%	6%
17	CCN1CCN(/C=N/c2nc3c(s2)CCCC3)CC1	2.7%	11	-6%	u
18	CCCCc1nc(NCCN2CCOCC2)c(C#N)c2c1COC(C)(C)C2	0.8%	4	-12%	-7%
19	CCN1C(=O)CSc2ccc(C(=O)NCc3ccccc3OC)cc21	1.1%	5	-10%	1%
20	CCN(CC(=O)Nc1ccc(OC)cc1)C(=O)c1ccc2c(c1)NC(=O)CS2	0.5%	x	-3%	x
21	CC(C)c1nnc(NC(=O)C2CCCN(C(=O)Nc3ccc(F)cc3)C2)s1 (centres undefined)	-2.4%	x	-2%	2%
22	COc1ccc2c(c1OC)C(=O)N1c3cccc(Cl)c3C(=O)OC21 (centres undefined)	0.2%	0	-10%	-3%
23	CCOC(=O)N1CCN(C(=O)c2ccc(CNS(=O)(=O)c3ccc(OC)cc3)cc2)CC1	2.4%	-12	2%	7%
24	O=C(CC1CCCCC1)NCCCN1CCOCC1	2.8%	2	0%	0%
25	CCOc1ccccc1/C=N/NC(=O)c1cc(C(C)C)[nH]n1	-0.1%	x	12%	-5%
26	O=C(NCCc1ccccc1)C1CCCN(C(=O)Nc2ccc(F)cc2)C1 (centres undefined)	-0.8%	x	18%	9%
27	O=C(NCc1ccc(Cl)cc1)c1noc2c1CCCC2	1.0%	6	-10%	-32%
28	CC1(C)CC(NC(=O)C(Cl)(Cl)Cl)CC(C)(C)N1	1.5%	0	-13%	-2%
29	N/C(=N\O)c1ccccc1N1CCCCC1	-1.9%	5	-2%	-1%
30	CCOc1ccc(C(=O)NCC(=O)N2CCC3(CC2)NCCc2[nH]cnc23)cc1	0.2%	x	-6%	-2%
31	N#Cc1nc(-c2cccc3ccccc23)oc1NCCN1CCOCC1	-4.3%	13	0%	-52%
32	CCN1CCN(c2cc(C)c3cc(NC(=S)N4CCCC4)ccc3n2)CC1	1.8%	0	5%	-6%
33	CC(C)Cc1cc(C(=O)N2CCCC(CO)(Cc3ccc(F)cc3)C2)no1 (centres undefined)	-0.8%	x	10%	8%
34	O=C1CN(C(=O)N[C@@H](Cc2ccccc2)C(=O)N[C@@H](C(=O)O)c2ccccc2)c2ccccc2N1	-1.2%	x	37%	-3%
35	O=C(NCc1ccc2c(c1)CCO2)Nc1ccccc1	3.0%	-3	-6%	-40%
36	COc1ccc(N2CCN(CC(=O)Nc3ncc(C)s3)CC2)cc1	-0.4%	x	0%	-2%
37	CCOc1ncccc1C(=O)OCc1ccccc1	-3.2%	7	-2%	-9%
38	Cc1cc(C)c(C#N)c(SCC(=O)N(CCC#N)c2ccc3c(c2)OCCO3)n1	u	x	u	x
39	Cn1c(=O)c(S(=O)(=O)C(C)(C)C)c(O)c2ccccc21	-0.9%	-9	0%	0%
40	CN(CC(=O)NC1CC1)S(=O)(=O)c1ccc(Br)cc1	-2.3%	x	12%	0%
41	Cc1cccc(OC(=O)c2ccncc2)c1C	1.6%	7	-3%	1%
42	NC(=S)NNC(=O)COc1ccccc1O	0.5%	4	3%	0%
43	CCOc1ccc(NC(=O)COc2nsnc2N2CCCCC2)cc1	-1.0%	0	-8%	1%
44	Cn1nc(-c2ccc(Cl)cc2)cc1NC(=O)CSCC(=O)O	4.3%	3	2%	0%
45	COc1ccc(Cc2nnc(NC(=O)c3cc(OC)c(OC)c(OC)c3)s2)cc1	0.0%	x	-7%	27%
46	S=C(Nc1ccc(N2CCOCC2)cc1)Nc1ccc2nc(-c3ccco3)c(-c3ccco3)nc2c1	u	-6	u	-19%
47	C=CCn1c(=N)n(CC(=O)c2ccc(Cl)cc2)c2ccccc21	u	x	-2%	-21%
48	CCOC(=O)Nc1ccc2c(CN3CCN(S(=O)(=O)c4ccccc4F)CC3)cc(=O)oc2c1	4.0%	x	-13%	x
49	CCCCn1c(=N)n(CC(=O)O)c2ccccc21	1.0%	-1	-12%	-3%
50	CCN(CC)S(=O)(=O)c1ccc(C(=O)NCC(c2ccc(OC)cc2)N2CCOCC2)cc1 (centres undefined)	1.3%	3	-15%	0%
51	CC(OC(=O)c1cc(=O)[nH]c2ccccc12)C(=O)Nc1ccccc1F (centres undefined)	-1.2%	x	-11%	x
52	Cc1ccc(C(=O)OCC(=O)NC(C)C2CC3CCC2C3)cc1N (centres undefined)	-1.6%	x	-6%	x
53	COCCN1C(=O)CS/C1=C(/C#N)C(=O)NCc1ccco1	u	1	-26%	3%
54	Cc1c(C(=O)Nc2ccc3c(c2)OCO3)sc2nc(-c3ccccc3)cn12	-5.2%	9	-1%	-1%
55	CCOCC(=O)Nc1ccc(S(=O)(=O)Nc2ncccn2)cc1	1.9%	-6	24%	-6%
56	O=C(NCCCc1ccccc1)C(=O)NCC1OCCN1S(=O)(=O)c1cc(F)ccc1F (centres undefined)	2.0%	x	-7%	x
57	CCC(C(=O)NCCc1ccco1)n1nc(C)c2c(C)n(-c3ccccc3)nc2c1=O (centres undefined)	1.9%	x	-19%	1%
58	CCCCCn1ccc(=N)cc1	-0.5%	-7	-9%	15%
59	COc1ccc(NC(=O)CNCc2ccc(Cl)cc2)cc1S(=O)(=O)N1CCOCC1	-1.3%	x	-1%	x
60	CCCCn1nnnc1NCc1ccc(N(CC)CC)cc1	0.3%	-8	-7%	-3%
61	COc1cc(/C=C(\NC(C)=O)C(=O)O)cc(OC)c1OC	0.4%	3	13%	-1%
62	O=C(COc1ccc([N+](=O)[O-])cc1)NNC(=O)Nc1cccc(F)c1	5.6%	x	17%	-12%
63	O=C(O)c1ccccc1NS(=O)(=O)c1cccc(NS(=O)(=O)c2cc(Br)ccc2Br)c1	0.0%	x	-4%	x
64	CC1=C([N+](=O)[O-])C(c2ccccc2Cl)NC(=O)N1 (centres undefined)	-0.2%	x	14%	5%

Next records
entry	Structure	Rango complex inh	GLA inh pH 4.5	Rango release inh	miR-21 FLuc
65	COc1ccc(OCCSc2nnc(-c3ccccc3)n2N)cc1	6.7%	9	2%	1%
66	COCCNC(=O)CSc1nnc(NC(=O)C2CC(=O)N(c3ccccc3OC)C2)s1 (centres undefined)	-1.2%	x	0%	-1%
67	COc1ccc(C(=O)NCC(=O)OCc2csc(-c3ccccc3)n2)cc1	3.9%	-2	0%	-31%
68	Cc1ccc(CSc2nnc(-c3ccncc3)n2C)cc1	0.9%	-5	1%	-14%
69	CCN(CC)C(=O)c1c[nH]c2ccc(S(=O)(=O)Nc3cc(C)cc(C)c3)cc2c1=O	3.4%	-2	-12%	0%
70	CC(C)C(c1nnnn1Cc1ccc(F)cc1)N1CCN(C2CCCC2)CC1 (centres undefined)	-0.4%	-4	6%	0%
71	Cc1c(Cl)cccc1NC(=O)Cn1c(-c2ccc(F)cc2)noc1=O	5.3%	3	-4%	-13%
72	COc1cc(C2c3c(c(C)c(C)oc3=O)Oc3c(C)c(C)oc(=O)c32)ccc1OS(=O)(=O)c1ccc(C)cc1	-0.1%	x	27%	x
73	O=S(=O)(NCc1cccs1)c1cccc2cccnc12	1.6%	7	18%	1%
74	Cc1[nH]c(=S)c(C#N)c(C)c1Cc1ccc(Cl)cc1Cl	-2.9%	3	-2%	-1%
75	Cc1ccc2oc(=O)c(/C=C(\O)CC(C)C)nc2c1	u	12	u	-9%
76	O=C(N/N=C/c1cc(Cl)cc(Cl)c1O)c1ccncc1	u	4	u	28%
77	Cc1c(Cl)cccc1NC(=O)C(=O)NNC(=O)c1ccccc1F	-1.9%	1	-7%	-8%
78	O=C(NCc1ccccn1)Nc1ccc(Cl)cc1Cl	0.6%	x	9%	-55%
79	Cc1cc(C)cc(NS(=O)(=O)c2cnc(Cl)c(Cl)c2)c1	-3.4%	2	-10%	3%
80	Cc1ccc(-c2n[nH]c(=S)n2/N=C/c2ccncc2)cc1	-0.6%	4	11%	-1%
81	O=C(CCC(=O)N1CCCCCC1)Nc1ccc([N+](=O)[O-])cc1	-3.3%	x	u	-1%
82	CCOC(=S)NC(=O)c1sc2ccccc2c1Cl	3.7%	0	8%	-34%
83	CC1CCc2sc(C(=O)OCC(=O)NCc3ccc(F)cc3)cc2C1 (centres undefined)	-5.3%	0	-2%	-1%
84	COc1ccc(-c2sc3cc4c(cc3c2C#CC2(O)CCCCC2)OCO4)cc1	0.0%	x	18%	x
85	CC(C)(C)c1ccc(/C=C2\SC(=O)N=C2N)cc1	1.8%	-1	42%	-10%
86	CCOc1ccc(N(CC(=O)NCCSCc2ccccc2)S(=O)(=O)c2ccccc2)cc1	-1.0%	x	-1%	6%
87	CC(C)C(c1nnnn1C(C)(C)C)N1CCN(Cc2cccnc2)CC1 (centres undefined)	0.9%	1	7%	0%
88	OC1C(O)C(O)C(O)C(O)C1O (centres undefined)	-4.6%&2.4%&-1.9%	-3	-5%&0%&-9%	x
89	O=C(CN(Cc1ccco1)C(=O)c1ccccc1F)Nc1ccccc1C(F)(F)F	1.2%	x	-28%	x
90	Cc1ccc(C(=O)NC(Cc2c[nH]c3ccccc23)C(=O)O)cc1 (centres undefined)	2.3%	-3	-9%	1%
91	Nc1ccc(C(=O)Nc2ccc(OC(F)(F)C(F)F)c(NC(=O)c3ccc(N)cc3)c2)cc1	-1.8%	-6	-15%	-7%
92	COC(C(=O)Nc1ccnn1C1CCN(Cc2cccc(C)n2)CC1)c1ccccc1 (centres undefined)	0.4%	x	-6%	1%
93	Cc1ccc(-c2noc(C3CCCN(C(=O)c4ccccc4Br)C3)n2)o1 (centres undefined)	-4.0%	x	-13%	-52%
